VDR inh = inhibitors of human vitamin D receptor; P11473; VDR-SRC2-3 peptide fluorescence polarization, 2 h; Potency, µM, for the others: max response, negative = inhibition, hits mostly inhibitors; 0.93% of 400,000 active; active = well fitted inhibition curve with a large enough effect; inconclusive = small, poorly fitted or top-dose-only effect, or another doubt; inactive = no such curve, though single readings can be large or run the other way; also: series mostly up to about 120 µM
Target sequence (P11473 whole entry, looked up): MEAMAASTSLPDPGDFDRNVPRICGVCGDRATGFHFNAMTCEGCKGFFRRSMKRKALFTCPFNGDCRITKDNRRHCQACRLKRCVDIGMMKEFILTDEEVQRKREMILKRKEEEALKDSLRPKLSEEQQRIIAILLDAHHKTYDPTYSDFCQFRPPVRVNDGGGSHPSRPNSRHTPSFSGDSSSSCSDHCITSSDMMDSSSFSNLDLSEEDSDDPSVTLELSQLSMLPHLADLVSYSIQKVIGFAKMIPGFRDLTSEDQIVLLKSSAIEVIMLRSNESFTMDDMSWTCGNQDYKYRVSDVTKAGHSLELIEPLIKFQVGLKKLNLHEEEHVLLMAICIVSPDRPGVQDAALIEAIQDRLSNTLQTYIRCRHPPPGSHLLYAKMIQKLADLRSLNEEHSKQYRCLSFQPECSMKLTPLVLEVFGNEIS
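FP read-out; VDR + SRC2-3 coactivator peptide; 23 nl compound by pintool; 2 h RT incubation; reagents held at 4 deg C, protected from light.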
* marks the source's active call; other numbers are inactive results; ? = inconclusive; & = joins results of further samples. % is scaled to controls: 0 for no effect and ±100 for the full control effect; potency is read from the fitted curve at half-maximal effect. An excerpt; count on the stated rates, not on these rows.

SMILES	VDR inh
O=C(Nc1cccc2oc(=O)ccc12)c1ccc([N+](=O)[O-])cc1[N+](=O)[O-]	3%
COc1ccc(CCNC(=O)C2(c3cccs3)CCOCC2)cc1	16%
Cc1cc2oc(C(=O)NC3CCS(=O)(=O)C3)cc(=O)c2cc1C (stereo not given)	22%
Cc1cc(Nc2cccc(C(F)(F)F)c2)nc2ccc(NC(=O)c3ccc(=O)[nH]c3)cc12	1%
COc1ccc(C(=O)OCC(=O)C(C)(C)C)cc1S(=O)(=O)N(C)CCc1cccnc1	-15%
CCOC(=O)Cn1cnc2scc(-c3ccc(C)c(C)c3)c2c1=O	-1%
CCOc1cccc2cc(-c3csc(NC(=O)CCC(=O)NCCN4CCCCC4C)n3)c(=O)oc12 (stereo not given)	3%
Cc1ccc(-c2nnc(-c3ccc(NC(=O)Cc4cccs4)cc3)o2)cc1	4%
Cc1ccc(CNC(=O)COC(=O)c2ccc(S(=O)(=O)N(C)C)cc2)cc1	-9%
Cc1ccc(NC(=O)c2cnccn2)cc1S(=O)(=O)N(C)C	-18%
Cc1ccc(OCC(=O)Nc2ccc(S(=O)(=O)N3CCN(C)CC3)cc2)cc1	-1%
COc1ccc(NC(=O)NCCCN2CCN(c3cc(C)ccc3C)CC2)cc1	-5%
Cc1ccc(S(=O)(=O)NC(=O)c2cc(C)n(CCCn3ccnc3)c2C)cc1	16%
O=C(O)C1=C(CSc2nnnn2CS(=O)(=O)O)CS[C@@H]2[C@H](NC(=O)[C@H](O)c3ccccc3)C(=O)N12	40µM*
Clc1nnc(Cl)c2c1ncn2Cc1ccccc1	-7%
O=C(COc1ccccc1)NC(=S)Nc1cccc2cc(O)ccc12	-16%
NC(=O)C1=C[C@H](c2coc3ccccc3c2=O)C[C@H](OCc2ccc(CO)cc2)O1	-8%
Cc1ccc(C(=O)N2[C@@H]3CN(C)C(=O)[C@@]2(C)[C@H]2C(=O)N(Cc4ccccc4)C(=O)[C@@H]32)cc1	-13%
O=C(CN(C(=O)CSc1nnc(COc2ccccc2)o1)c1ccc(F)cc1)NC1CCCCC1	4%
CCN(CC)S(=O)(=O)c1ccc(NC(=O)CSc2ncnc3ccccc23)cc1	-4%
C[C@H](NC(=O)c1nc[nH]c1C(=O)N[C@@H](Cc1ccccc1)C(=O)OC(C)(C)C)C(=O)OC(C)(C)C	-9%
COC(=O)CN1C(=O)CSc2ccc(S(=O)(=O)Nc3ccc(C(C)=O)cc3)cc21	4%
COc1ccc(C2=NOC(C(=O)NCc3cccnc3)C2)cc1OC (stereo not given)	-6%
Cc1ccc(NC(=O)C2C3CCC(O3)C2C(=O)O)cc1C (stereo not given)	-21%
O=[N+]([O-])c1cc(/C=N\Nc2nc(-c3ccccc3)cs2)ccc1O	8%
Cc1cc(C(=O)COc2ccc3ccc(=O)oc3c2)c(C)n1Cc1cccs1	-25%
CC(=O)O[C@H]1C(=O)[C@]2(C)[C@H]([C@H](OC(=O)c3ccccc3)[C@]3(O)C[C@H](OC(=O)[C@H](O)[C@@H](NC(=O)c4ccccc4)c4ccccc4)C(C)=C1C3(C)C)[C@]1(OC(C)=O)CO[C@@H]1C[C@@H]2O	-2%
CN(C)C(=O)c1ccc(-c2nccc(NCc3ccccc3)n2)cc1	?
Cc1ccc(NC(=O)c2ccccc2NS(=O)(=O)c2ccc(Cl)s2)cc1S(=O)(=O)N1CCOCC1	-1%
CCN(CC)C(=O)CN1C(=O)COCC1=O	2%
CC(=O)c1cccc(NC(=O)CN2C(=O)CN(C)C(=O)c3ccccc32)c1	6%
CCn1c(SCC(=O)NC)nnc1C(C)C	-1%
COc1cc(C2Nc3cccc4cccc(c34)N2)ccc1OC(C)=O	-22%
N#Cc1nc(Cc2ccccc2)oc1NCc1ccccc1Cl	4%
CC1CCC(NC(=O)c2ccc3c(c2)N(Cc2ccccc2)C(=O)c2ccccc2S3(=O)=O)CC1 (stereo not given)	-8%
O=C(NCCc1ccccc1)C(=O)N/N=C/c1ccc2c(c1)OCO2	-4%

2 entries drawn at random from those above, as already listed:
SMILES	VDR inh
CCN(CC)C(=O)CN1C(=O)COCC1=O	2%
COc1cc(C2Nc3cccc4cccc(c34)N2)ccc1OC(C)=O	-22%

(list continues)
SMILES	VDR inh
CC1(C)C(=O)N(CC(=O)Nc2ccc(OC(F)(F)F)cc2)c2ccccc21	12%
CCOc1cc(C2C(C#N)=C(N)Oc3n[nH]c(C)c32)ccc1OCCN1CCOCC1 (stereo not given)	6%
Cc1ccc2nc(-c3ccccc3)c(CN3CCSCC3)n2c1	-17%
CC(=O)Nc1ccc2nc(N)sc2c1	16%
CCOc1ccc(CNC(=O)c2ccc3c(c2)sc2nc(-c4ccc(OC)cc4)cn23)cc1	17%
NS(=O)(=O)c1ccc(NC(=O)c2cc(Cl)sc2Cl)cc1	-5%
CCOC(=O)N1CCN(C(=O)CSC2=NS(=O)(=O)c3cc(Cl)ccc3N2)CC1	-4%
CC1CCCC(NC(=O)CCC(=O)N2CCOc3ccccc32)C1C (stereo not given)	?
CN(C)S(=O)(=O)c1ccc(NC(=O)CSc2nc3ccccc3n2-c2ccccc2)cc1	-3%
CC(=O)Nc1ccc(Sc2ncccc2C(=O)Nc2cc(Cl)cc(Cl)c2)cn1	-3%
CC(C)c1ccccc1OCCNS(C)(=O)=O	-3%
CCOC(=O)c1c(C)[nH]c(C(=O)COC(=O)[C@H](C)NC(=O)c2ccccc2Cl)c1C	-8%

At a glance, part of the list above:
SMILES	VDR inh
NS(=O)(=O)c1ccc(NC(=O)c2cc(Cl)sc2Cl)cc1	-5%
CCOC(=O)N1CCN(C(=O)CSC2=NS(=O)(=O)c3cc(Cl)ccc3N2)CC1	-4%
CC1CCCC(NC(=O)CCC(=O)N2CCOc3ccccc32)C1C (stereo not given)	?
CN(C)S(=O)(=O)c1ccc(NC(=O)CSc2nc3ccccc3n2-c2ccccc2)cc1	-3%
CC(=O)Nc1ccc(Sc2ncccc2C(=O)Nc2cc(Cl)cc(Cl)c2)cn1	-3%
CC(C)c1ccccc1OCCNS(C)(=O)=O	-3%
CCOC(=O)c1c(C)[nH]c(C(=O)COC(=O)[C@H](C)NC(=O)c2ccccc2Cl)c1C	-8%

Next compounds
SMILES	VDR inh
CCc1cc(C(=O)NNC(=S)NC2CCCCC2)cs1	1%
Cc1cccc(Nc2ccccc2C(=O)OCC(=O)N(C)C2CCS(=O)(=O)C2)c1C (stereo not given)	15%
NC(=O)C(=O)NCCCN1CCOCC1	-2%
CN1CCc2c(C#N)c(N3CCOCC3)nc(NCC3CCCO3)c2C1 (stereo not given)	8%
COc1ccc2c(C(=O)c3ccc(C)cc3)n(Cc3ccc(C(N)=O)cc3)[n+]([O-])c2c1	-20%
C[C@H](N)C(=O)N[C@@H](Cc1ccc(F)cc1)C(=O)N[C@@H](CCCN=C(N)N)C(=O)N[C@@H](CC1CCCCC1)C(=O)N[C@@H](CCCCN=C(N)N)C(=O)N[C@@H](Cc1ccc(O)cc1)C(N)=O	7%
COc1cc(C2Nc3ccccc3C(=O)N2c2ccc(Cl)cc2)c(Cl)cc1OCC(=O)O (stereo not given)	-15%
O=C(O)/C=C/c1ccc(S(=O)(=O)Nc2ccc(C(=O)NCC(=O)O)cc2)cc1	5%
O=C(CCc1nc(-c2ccccc2)no1)NC1CCCCC1	14%
COc1ccc(NC(C)=O)cc1S(=O)(=O)Nc1cccc(S(=O)(=O)NC2=NCCC2)c1	-3%
CCOC(=O)C1CCCN(C(=O)c2ccc(C)c([N+](=O)[O-])c2)C1 (stereo not given)	-7%
O=C1c2ccccc2C(=O)N1CCCCNc1ccccc1	-18%
O=C(OCCN1C(=O)c2ccccc2C1=O)C1CCN(S(=O)(=O)c2cccs2)CC1	3%
CCN(Cc1ccccc1)C(=O)Cn1c(=O)n(CC(=O)NCc2ccco2)c(=O)c2sccc21	2%
C=CC[C@@H](CC(=O)N[C@@H](CO)Cc1ccccc1)C(=O)N[C@H](COC(=O)[C@H](CC=C)CC(=O)OC(C)(C)C)Cc1ccccc1	-17%
CCOC(=O)c1cc(S(=O)(=O)N2CCN(c3cccc(OC)c3)CC2)[nH]n1	4%
C=CCN1C(=O)C2(C(C#N)=C(N)Oc3n[nH]c(CCC)c32)c2ccccc21 (stereo not given)	-1%
O=S(=O)(Nc1cccc(-c2nc3cccnc3s2)c1)c1ccc2c(c1)OCCO2	-8%
Cc1cc(Br)ccc1NC(=O)c1ccccc1-c1ccccc1	-6%
COc1cc2nc(C)sc2cc1SC	?
CCCNC(=O)COc1coc(CN2CCN(c3ccc(F)cc3)CC2)cc1=O	2%
CO/N=C(/C(=O)N[C@@H]1C(=O)N2C(C(=O)O)=C(COC(N)=O)CS[C@H]12)c1ccco1	50µM*
O=C(Nc1ccc(Cl)cn1)c1ccc(COCC(F)(F)C(F)F)o1	12%
CCNC(=O)c1ccc2c(c1)S(=O)(=O)c1ccccc1C2=O	-4%
CC(C)(C)c1ccc(C(=O)N2CCN(C(=O)c3ccco3)CC2)cc1	-9%
O=C(COc1ccc2ccccc2c1)N1CCN(C(=O)c2ccc([N+](=O)[O-])cc2)CC1	14%
O=c1sc2ccccc2n1COc1ccccc1	28%
CC(=O)N1N=C(C)CC1c1ccc(OCc2ccccc2)cc1 (stereo not given)	-10%
Cc1cc(C)c(C#N)c(Oc2ccccc2Br)n1	6%
Cc1[nH]c2ccccc2c1C(=O)Cn1c(=O)oc2ccccc21	-8%
COC(=O)c1ccc(NC(=O)c2cc(S(=O)(=O)N3CCC(C)CC3)cn2C)cc1	3%
COc1cccc(Cn2c(=O)c(-c3ccc(F)cc3)nc3cncnc32)c1	-1%
CCN(CC)c1ccc(CNc2nnnn2C)cc1	5%
CC(C)C(=O)Nc1ccc(NC(=S)NC(=O)c2ccc([N+](=O)[O-])cc2)cc1	-12%
C=CCn1c(SCC(=O)c2ccc(NS(=O)(=O)c3ccccc3)cc2)nnc1-c1cccs1	?
Cc1nnsc1C(=O)Nc1ccc(S(=O)(=O)N2CCCCC2)cc1	-2%
CCOC(=O)CN(C(=O)CSc1nnc2c(n1)[nH]c1ccc(F)cc12)c1ccccc1	7%
CCOC(=O)C(C(=O)N1CCOCC1)C1CCCCC1 (stereo not given)	18%
CCCn1c(SCC(=O)N2N=C3/C(=C/c4ccc(OC)cc4)CCCC3C2c2ccc(OC)cc2)n[nH]c1=O (stereo not given)	-8%
CCn1ccc2c(OCC(=O)NCc3ccccc3)cccc2c1=O	-11%
COCc1cc(C)nc(N2CCN(c3ccccc3)CC2)c1C#N	15%
O=C(CNC(=O)C1COc2ccccc2O1)N/N=C/c1cc(Br)c(O)c(Br)c1 (stereo not given)	-5%
O=C(O)CCN1C(=O)CC2(CCCCC2)C1=O	21%
O=C(NNS(=O)(=O)c1ccc(Br)cc1)NC1CCCCC1	-4%
O=C(c1cccc(C(F)(F)F)c1)c1c[nH]c(C(=O)NCC2CCCO2)c1 (stereo not given)	1%
CC(C)C[C@@H](CN)NC(=O)c1nc[nH]c1C(=O)N[C@@H](C)C(=O)CNC[C@H](C)NC(=O)c1nc[nH]c1C(=O)N[C@@H](CC(=O)O)C(=O)O	?
CCOC(=O)Cc1csc(NC(=O)CCC(=O)O)n1	-8%
O=C(Nc1ccc(Cl)cc1)Nn1cnc2ccccc2c1=O	-4%

Looked up above:
For VDR inh, `CCn1ccc2c(OCC(=O)NCc3ccccc3)cccc2c1=O` shows -11%
For VDR inh, `O=C(Nc1ccc(Cl)cc1)Nn1cnc2ccccc2c1=O` shows -4%

The listing continues:
SMILES	VDR inh
CC(C)C[C@H](NC(=O)c1nc[nH]c1C(=O)N1CCC(C)CC1)C(=O)OCc1ccccc1	11%
O=C(O)c1ccc(S(=O)(=O)N(Cl)Cl)cc1	?
N#Cc1c(NC(=O)CCC(=O)O)sc2c1CCCCC2	0%
COCC(=O)Nc1nc(-c2ccc(-c3ccccc3)cc2)cs1	-26%
Cn1c(N)c(C(=O)COC(=O)c2cccc(S(=O)(=O)N3CCOCC3)c2)c(=O)n(C)c1=O	-1%
CC(C)C(=O)Nc1cccnc1	-2%
O=C(CCC(=O)N1CCOc2ccccc21)N1CCN(c2ccccc2)CC1	13%
O=C(CN1CCC(Cc2ccccc2)CC1)Nc1ccc2c(c1)OCCO2	-2%
CC1(C)Cc2c(sc3nc(NCCN4CCOCC4)n4ncnc4c23)CO1	-2%
CC(C)NCc1nnc(-c2ccc(Cl)cc2)o1	-9%
Cc1cc(C)n(CCOc2nonc2N)n1	0%
O=C(Nc1ccc2oc(-c3ccncc3)nc2c1)c1ccc2c(c1)OCO2	-10%
O=C(CCCC(=O)NC1CCCC1)NC1CCCC1	-13%
CCOC(=O)c1ccc(NC(=O)N2CCN(C3CCCCC3)CC2)cc1	4%
O=C(c1cccc2ccccc12)N1CCN(c2ccc([N+](=O)[O-])c(NCc3ccco3)c2)CC1	-17%
Cc1c(C2CCN(CCc3ccccc3)CC2)noc1-c1ccc(Cl)cc1	-9%&4%
CN(CCCn1cnc2c(OCc3ccccc3)ncnc21)CCc1ccccn1	-21%
N=c1c(C(=O)NCCN2CCOCC2)cc2c(=O)n3ccccc3nc2n1Cc1ccc(F)cc1	0%
CCCCC(=O)NC(=S)Nc1ccc(S(=O)(=O)N2CCCC2)cc1	-5%
Cc1nnc(NC(=O)c2cc(S(=O)(=O)N3CCCCC3)ccc2Cl)s1	-11%
Fc1ccc(NCc2cccnc2)cc1F	-3%
CCN1C[C@@H]2[C@@H]3C(=O)N(C)C(=O)[C@@H]3[C@](C)(C1=O)N2C(=O)c1ccc(C)cc1	-13%
CN(C)/C=C/C(=O)c1nn(-c2ccc(F)cc2)ccc1=O	5%
COc1ccc(-c2[nH]ncc2CNCCCSC)cc1F	8%
O=[N+]([O-])c1ccc(N2CCN(S(=O)(=O)c3ccccc3)CC2)cc1NCc1cccnc1	2%
CCCC(C)C(=O)OCC(=O)Nc1c(Br)cc(C)cc1Br (stereo not given)	1%

Marked active in VDR inh, among the entries above:
SMILES	VDR inh
O=C(O)C1=C(CSc2nnnn2CS(=O)(=O)O)CS[C@@H]2[C@H](NC(=O)[C@H](O)c3ccccc3)C(=O)N12	40µM*
CO/N=C(/C(=O)N[C@@H]1C(=O)N2C(C(=O)O)=C(COC(N)=O)CS[C@H]12)c1ccco1	50µM*

Screening data: PubChem BioAssay, National Center for Advancing Translational Sciences (NCATS)
